# RecA splice inh – Mtb RecA intein splicing inhibitors, primary screen, biochemical, fluorescence, HTS; Protein RecA (Mycobacterium tuberculosis (strain ATCC 25618 / H37Rv)), P9WHJ3; cell-free RecA intein splicing; inhibition, %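 (about 9 µM by stock and volumes)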; actives 0.75% (n = 290,000); AID 2221, 2009; in the data active means inhibition above about 30%; inconclusive means no clear call, values can overlap the other calls;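 further: 0% = vehicle wells and 100% = reference inhibitor control wells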
# Target sequence (P9WHJ3 whole entry, looked up, canonical isoform): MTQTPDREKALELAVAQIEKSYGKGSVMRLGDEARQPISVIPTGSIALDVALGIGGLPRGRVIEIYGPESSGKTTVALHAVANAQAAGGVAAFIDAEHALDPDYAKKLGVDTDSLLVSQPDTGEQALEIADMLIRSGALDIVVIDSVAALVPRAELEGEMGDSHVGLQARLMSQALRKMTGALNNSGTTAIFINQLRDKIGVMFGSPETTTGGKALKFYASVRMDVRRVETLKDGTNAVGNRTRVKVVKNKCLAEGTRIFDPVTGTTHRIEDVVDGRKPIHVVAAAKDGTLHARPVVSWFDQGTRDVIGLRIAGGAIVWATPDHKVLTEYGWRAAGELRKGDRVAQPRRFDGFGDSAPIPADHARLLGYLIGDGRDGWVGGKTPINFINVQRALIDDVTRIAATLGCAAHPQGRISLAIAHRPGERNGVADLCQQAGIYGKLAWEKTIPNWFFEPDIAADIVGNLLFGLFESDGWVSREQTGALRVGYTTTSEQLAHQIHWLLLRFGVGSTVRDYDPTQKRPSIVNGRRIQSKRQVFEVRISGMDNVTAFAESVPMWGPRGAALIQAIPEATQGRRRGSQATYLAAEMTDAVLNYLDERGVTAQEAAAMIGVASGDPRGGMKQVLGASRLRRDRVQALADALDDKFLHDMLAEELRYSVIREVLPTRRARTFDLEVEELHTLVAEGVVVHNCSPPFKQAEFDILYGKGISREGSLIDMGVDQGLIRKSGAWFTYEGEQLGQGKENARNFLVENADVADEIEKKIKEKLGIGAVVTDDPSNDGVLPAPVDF
# YopH PTP inh – YopH tyrosine phosphatase inhibitors, primary screen, biochemical, fluorescence Ex485/Em525 | YopH tyrosine phosphatase [Yersinia enterocolitica] | actives 0.16% (n = 140,000) | inhibition, %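 (about 10 µM by stock and volumes)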;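 active means inhibition of 50% or more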;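 further: controls were vehicle for no effect and minimum signal wells for full effect; inactives centre near -20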
# Mtb bLac sens – beta-lactam sensitization of Mtb H37Rv, H37Rv; inhibition, % at 25 µM; M. tuberculosis H37Rv growth with meropenem, percent inhibition; hits of this screen are not shown here; actives 0.27% (n = 330,000);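 active means about 74% or more and at least 40 points above the plate without the antibiotic, then above 30% in a dose series; inconclusive means first-round hits that could not be retested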;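 further: growth measured after seven days incubation then overnight dye step; 0% = bacteria only wells and 100% = bacteria with antibiotic; twin plates without the antibiotic show which effects depend on it; some results filed as inactive read as strong as hits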
# Arbovirus anti – antivirals against arbovirus infection, primary screen, cell-based, full library, 10K replicate subset; inhibition, % at 10 µM; actives 0.37% (n = 200,000); AID 1251, 2008; arbovirus infection cell-based antiviral screen;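 active means inhibition from about 30%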;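 further: bluetongue infection of BSR cells; cell survival read as ATP light after 72 h; 0% = infected wells without compound and 100% = uninfected wells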
# Mtb growth – M. tuberculosis H37Rv growth inhibitors, H37Rv strain (AID 1626); M. tuberculosis H37Rv growth inhibition; higher % means a stronger effect; actives 0.95% (n = 220,000); inhibition, % at 10 µM; hits with a dose series show IC50 in µM;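 active means confirmed in a dose series; inconclusive means inhibition above 80% but not taken into the dose series; inactive means below 80% or under 30% at every dose of the series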;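 further: bacteria incubated seven days before Alamar blue readout; 0% = bacteria only wells and 100% = bacteria with antibiotic wells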
# Arbovirus anti repeat – second read-out of Arbovirus anti, no call of its own (marks repeat the call); inhibition, %; measured here: 10K subset replicate screen; many hits read low in the repeat;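 first of two repeat runs on a subset; 0% = infected and 100% = uninfected wells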
# An asterisk follows results filed as active; u = inconclusive; x = no result given. The list is partial; the hit share may differ from the screen's.
# Start of the data: the first 2 entries, to show the layout:
SMILES,RecA splice inh,YopH PTP inh,Mtb bLac sens,Arbovirus anti,Mtb growth,others
COc1ccc(C2CC(=O)C(CS(=O)(=O)c3ccccc3)C(=O)C2)cc1 (stereo not given),-0.7,x,9.3,15.3,27.9%,
COc1cc(CCC(=O)OCC(=O)NC2CCCC(C)C2C)cc(OC)c1OC (stereo not given),0.6,x,5.0,-0.8,2.8%,

# All compounds of this part, previewed entries included:
SMILES,RecA splice inh,YopH PTP inh,Mtb bLac sens,Arbovirus anti,Mtb growth,others
COc1ccc(C2CC(=O)C(CS(=O)(=O)c3ccccc3)C(=O)C2)cc1 (stereo not given),-0.7,x,9.3,15.3,27.9%,
COc1cc(CCC(=O)OCC(=O)NC2CCCC(C)C2C)cc(OC)c1OC (stereo not given),0.6,x,5.0,-0.8,2.8%,
c1ccc(CN2CCN(CCOCCOc3ccc4c(c3)CCC4)CC2)cc1,2.9,x,-5.4,-3.1,0.7%,
CCOC(=O)C(C)Oc1cccc2c(=O)n(CC(=O)NCCc3ccc(OC)c(OC)c3)ccc12 (stereo not given),0.7,-31.0,-7.4,3.0,3.9%,
CCN1CCN(CC(=O)N2N=C(c3ccc(OC)cc3)CC2c2ccc(OC)cc2)C(=O)C1=O (stereo not given),-2.1,x,6.3,-1.3,5.5%,
O=C(Nc1ccccc1N1CCOCC1)C1CCN(S(=O)(=O)c2ccccc2F)CC1,0.0,-9.6,-6.7,1.9,1.0%,
O=C(CN1C(=O)C2CCCCC2C1=O)OCc1nnc(-c2ccccc2)o1 (stereo not given),2.5,x,-1.7,4.4,-7.8%,
COc1cccc2c(=O)c3cccc(N)c3[nH]c12,-136.3,-22.0,7.6,-5.6,1.0%,
O=C(Cn1c(C(F)(F)F)nc2ccccc21)NCCCN1CCOCC1,1.8,-17.0,-17.1,7.2,-10.6%,
Cc1nn(S(=O)(=O)c2ccc(F)cc2)c(C)c1S(=O)(=O)N1CCCCC1,-2.0,x,5.7,x,x,
CCN(CC)S(=O)(=O)c1cc(NC(=O)CCNC(=O)c2ccccc2Cl)ccc1C,-11.9,-25.0,-2.5,2.7,1.5%,
CN(Cc1cnccn1)C(=O)C1CCC(=O)N(CCc2ccccc2)C1 (stereo not given),-0.3,x,-13.0,x,x,
COc1ccc(N(CC(=O)NN=C2CCCC2)S(=O)(=O)c2ccccc2)cc1Cl,-1.9,-26.8,1.9,-4.9,-2.3%,
CCCC(C)C(=O)Nc1nc(C)c(-c2csc(Nc3ccc(Cl)cc3)n2)s1 (stereo not given),3.4,6.6,1.2,-18.3,3.7%,
Cc1nc2ccccc2c(=O)n1/N=C/c1ccc(O)c(O)c1O,-2.2,x,1.3,x,x,
O=C(Nc1ccccn1)c1ccc(NC(=O)c2ccco2)cc1,0.8,-24.2,-5.0,-8.6,4.5%,
Cc1ccc(Cl)c(OCC(=O)Nc2sc(C)c(C)c2C#N)c1,-1.0,-17.2,9.1,-2.9,3.1%,
CC(C)c1ccc(NC(=O)CNS(=O)(=O)c2ccc(F)cc2)cc1,-2.1,x,3.4,5.4,31.2%,
O=C(NC1CCN(Cc2ccccc2)CC1)c1cc(-c2ccccn2)nc2ccccc12,0.3,3.2,-2.9,-13.9,-5.2%,
COc1ccc(/C=C2\SC(N3CCCCC3)=NC2=O)cc1OC,1.7,x,2.6,x,x,

# Structural class, the compounds so far containing two or more sulfur atoms.
SMILES,RecA splice inh,YopH PTP inh,Mtb bLac sens,Arbovirus anti,Mtb growth,others
Cc1nn(S(=O)(=O)c2ccc(F)cc2)c(C)c1S(=O)(=O)N1CCCCC1,-2.0,x,5.7,x,x,
CCCC(C)C(=O)Nc1nc(C)c(-c2csc(Nc3ccc(Cl)cc3)n2)s1 (stereo not given),3.4,6.6,1.2,-18.3,3.7%,

# Back to the main list with the three entries that preceded the break.
SMILES,RecA splice inh,YopH PTP inh,Mtb bLac sens,Arbovirus anti,Mtb growth,others
CC(C)c1ccc(NC(=O)CNS(=O)(=O)c2ccc(F)cc2)cc1,-2.1,x,3.4,5.4,31.2%,
O=C(NC1CCN(Cc2ccccc2)CC1)c1cc(-c2ccccn2)nc2ccccc12,0.3,3.2,-2.9,-13.9,-5.2%,
COc1ccc(/C=C2\SC(N3CCCCC3)=NC2=O)cc1OC,1.7,x,2.6,x,x,
O=C(Nn1cnnc1)c1ccc(Cl)cc1,-1.0,x,-2.0,x,x,
COCCNC(=O)c1ccccc1NC(=O)c1cccc([N+](=O)[O-])c1C,-2.6,x,4.7,-7.0,3.2%,
Cc1ccc(C)c(-n2nnnc2SCC(=O)c2ccc3c(c2)NC(=O)CO3)c1,0.4,-33.7,u,-2.1,-6.2%,
CCCNC(=O)N1[C@H]2CC[C@@H]1C(C(=O)OC)=C(c1cc3ccccc3s1)C2,0.5,x,-2.4,x,-11.5%,
COc1ccc(S(=O)(=O)N2c3ccccc3NC(=O)CC2C)cc1 (stereo not given),-2.0,x,-14.6,x,x,
Cc1nn(C(C)(C)C)c(NC(=O)c2ccc(Cl)cc2Cl)c1Br,0.4,x,99.2,x,63.7%,
CC(SC1CCCC1)C(=O)Nc1ccnn1C(C)C (stereo not given),-0.7,-29.1,1.8,1.3,-1.8%,
CCCNC(=O)Cn1c(=O)n(CC(=O)N2CCCCC2)c(=O)c2sccc21,2.5,x,-12.3,x,x,
COc1ccnc(Oc2ccc3ccccc3c2)c1C#N,2.0,-30.2,-4.6,4.6,x,
CCn1c(SCC(=O)Nc2ncc(C(F)(F)F)cc2Cl)nnc1-c1cccc(C)c1,2.5,-10.7,2.4,-4.5,-10.6%,
O=C1CSc2nc3ccccc3n21,0.8,-158.7,1.7,12.8,-7.5%,
NC1(N)OC(CN2C(=O)c3ccccc3C2=O)CS1 (stereo not given),-0.2,-32.4,38.9,9.8,-4.5%,
CC(CN1CCCC1)OC(=O)Cc1ccc(Cl)cc1 (stereo not given),-1.7,x,-3.7,x,x,
Cc1ccn2cc(CNC(=O)c3ccc(Br)o3)nc2c1,0.7,-31.1,-3.5,4.1,2.1%,
Cc1cc(C)n(CC(=O)NNC(=O)C2CC(=O)N(Cc3ccccc3Cl)C2)n1 (stereo not given),-0.7,x,-4.0,x,x,
CCSc1nnc(NC(=O)C2Cc3ccccc3CN2C(=O)c2ccco2)s1 (stereo not given),5.1,-42.2,x,16.5,-9.2%,
O=C(Nc1ccc(-c2nc3cccnc3s2)cc1)c1ccco1,-1.9,-16.4,7.2,-6.3,-2.1%,Arbovirus anti repeat=-2.1
CCc1ccc2[nH]c3nc(SCC(=O)NNC(=O)c4ccc(C(C)(C)C)cc4)nnc3c2c1,-2.6,-35.6,3.0,-14.5,-5.5%,
CC1CCN(C(=O)Cn2c3ccc(F)cc3c3nc4n(c(=O)c32)CCCS4)CC1,-3.0,x,0.5,x,x,
CN(C(=S)NC1=CCS(=O)(=O)C1)C1CCCCC1,-4.9,-19.8,10.8,1.7,-1.9%,

# Fetched by compound from the list above:
SMILES,RecA splice inh,YopH PTP inh,Mtb bLac sens,Arbovirus anti,Mtb growth,others
Cc1ccc(C)c(-n2nnnc2SCC(=O)c2ccc3c(c2)NC(=O)CO3)c1,0.4,-33.7,u,-2.1,-6.2%,
CCn1c(SCC(=O)Nc2ncc(C(F)(F)F)cc2Cl)nnc1-c1cccc(C)c1,2.5,-10.7,2.4,-4.5,-10.6%,
O=C(Nn1cnnc1)c1ccc(Cl)cc1,-1.0,x,-2.0,x,x,
CCCNC(=O)N1[C@H]2CC[C@@H]1C(C(=O)OC)=C(c1cc3ccccc3s1)C2,0.5,x,-2.4,x,-11.5%,
COCCNC(=O)c1ccccc1NC(=O)c1cccc([N+](=O)[O-])c1C,-2.6,x,4.7,-7.0,3.2%,
CC(CN1CCCC1)OC(=O)Cc1ccc(Cl)cc1 (stereo not given),-1.7,x,-3.7,x,x,

# Continued:
SMILES,RecA splice inh,YopH PTP inh,Mtb bLac sens,Arbovirus anti,Mtb growth,others
COc1cccc(CN2CCNC(=O)C2CC(=O)NCCCC2CCCC2)c1OC (stereo not given),3.1,x,u,x,x,
CC/C(=N\NC(=S)Nc1cc(C)ccc1C)c1ccc(OC(F)F)cc1,18.5,-14.9,94.3,-3.6,u,
O=C(Cc1cccs1)NNC(=O)C12CC3CC(CC(C3)C1)C2,-5.6,x,-3.0,0.1,-11.1%,
Cc1ccc(/C(COc2ccccc2O)=N\O)cc1,4.9,-35.8,-2.9,-4.3,7.4%,
O=C(CCN1C(=O)S/C(=C\C=C\c2ccccc2)C1=O)Nc1ccc(O)cc1,5.7,x,17.9,x,x,
O=C(N/N=C/c1ccccc1)c1ccc(OCc2ccccc2)cc1,0.0,x,2.0,-1.9,5.2%,
COc1ccc(N(C(=O)c2ccco2)S(=O)(=O)c2ccc(F)cc2)cc1,25.9,-2.5,-5.8,-6.6,-1.1%,
O=C1C(=O)N(CCCN2CCOCC2)C(c2ccc(F)cc2)/C1=C(\O)c1ccc2c(c1)OCCO2 (stereo not given),-3.1,x,4.7,x,x,
Cc1ccccc1CNC(=O)Nc1cccs1,x,-47.6,-12.1,-4.5,-4.5%,
CN1C(=O)N(C)C2(C)CC1(C)N(C)C(=O)N2C,0.3,x,0.7,x,-4.8%,
Cc1ccc(Cl)cc1-n1c(=O)cc(N2CC(C)OC(C)C2)[nH]c1=O (stereo not given),-2.5,-25.9,x,1.8,-1.1%,
COC(=O)C1=NN(c2ccc(OC)cc2)C2C(=O)N(c3ccccc3OC)C(=O)C12 (stereo not given),-4.0,x,70.9,x,-5.6%,
CCN(CC)C(=O)COCc1cc(-c2ccc3c(c2)OCO3)on1,-0.7,x,-2.1,x,x,
COC(=O)NNC(=O)C1CCC(C)CC1 (stereo not given),-1.3,-19.5,-4.7,1.7,-0.7%,
COc1cc(OC)cc(C(=O)NNC(=S)Nc2ccccc2OC)c1,0.1,-26.1,-10.2,-3.7,-3.9%,
CCOC(=O)c1c(N)c2cc([N+](=O)[O-])cnc2n1C,-1.1,x,1.8,x,-5.1%,
CCOC(=O)Cn1ncc2c3ccccc3n(CC(=O)OCC)c2c1=O,-1.2,x,0.6,x,x,
CCOc1ccc(Cl)cc1S(=O)(=O)N1CCCC1,0.3,-11.4,x,14.4,-5.3%,
Cc1c(Cc2ccccc2)c(=O)oc2c(O)c(O)ccc12,6.8,x,x,-2.3,-0.4%,
O=C(Cn1nc(C(=O)O)c2ccccc2c1=O)Nc1ccc2c(c1)OCO2,-0.6,x,-4.5,x,-2.4%,
COc1ccccc1Oc1cn[nH]c1-c1ccc(O)cc1O,-2.0,x,7.0,x,x,
O=C(/C=C/c1ccc(Br)cc1)c1ccc(NC2=NCCCS2)cc1,8.7,-20.5,99.4,-32.1,67.6%,
C=C(C)CN(CC)c1nc(N)c(C#N)c(CC#N)c1C#N,-4.8,-18.0,-18.0,-3.7,-15.4%,
COc1ccc(CN(C(=O)c2ccco2)C2CC(C)N(C)CC2C)cc1 (stereo not given),2.1,-17.6,-4.6,4.7,-7.8%,
Cc1cccc(S(=O)(=O)N2CN(Cc3ccco3)c3nc4ccccc4nc32)c1,6.3,-33.3,-6.8,-2.1,4.0%,
O=C(c1ccc2c(=O)n3c(nc2c1)CCCCC3)N1CCc2ccccc21,-2.9,x,-4.4,x,0.2%,
Fc1cccc(F)c1-n1c(CN2CCCC2)csc1=S,-1.9,x,4.3,-1.6,-2.5%,
CC(C)N(C(=O)COC(=O)c1ccc(O)cc1)C(C)C,-1.5,-24.0,-7.9,6.5,4.4%,
COc1ccc(OC)c(S(=O)(=O)Nc2cc(Cl)cc(Cl)c2)c1,0.2,14.8,-7.8,5.5,3.3%,
Cc1ccccc1OCC(=O)Nc1nnc(C2CCCC2)s1,1.2,x,-6.3,x,x,
COCc1nnc(NC(=O)c2cc(Cl)ccc2OC)s1,-1.5,-9.4,-8.9,-0.4,-7.9%,
CC(C)c1nnc(NC(=O)CCC(=O)NC2CCCCCCC2)s1,-1.6,-22.8,-5.3,7.6,-6.2%,
C/C(=N\NC(=O)CSCc1ccc([N+](=O)[O-])cc1)c1cccc(Br)c1,0.8,-31.3,5.4,4.2,-12.2%,

# Screening data: PubChem BioAssay, several laboratories
